Screening results (PubChem BioAssay)
NPYLR7 agonist – activates Aedes aegypti NPYLR7 receptor; HEK293T NPYLR7/Galpha15, GCaMP6s calcium fluorescence; AID 1259423; activation, % at 10 µM; hit rate 0.15% among 270,000; in the data active = activation above about 40%;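 note: 0% = vehicle and 100% = reference agonist at the receptor; some compounds past the cut are filed as inactive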
NPYLR7 agonist max-min – also measured in NPYLR7 agonist; calls as there; activation, %; measured here: Max-Min RFU normalised activation; some inactives read as strong as hits;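 span of the calcium signal over five minutes; 0% = vehicle and 100% = native peptide agonist; compound fluorescence can raise it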
Numbers without * were called inactive; & = joins results of further samples.

SMILES	NPYLR7 agonist	NPYLR7 agonist max-min
O=C(NCc1ccco1)N1CCC2(CCCN(CCCc3ccccc3)C2=O)C1 (stereo not given)	21	7
CCN(CC(=O)NC(C)C)C(=O)c1cc2c(s1)CCC(C)C2 (stereo not given)	-4	-4
Cc1cc(/C=C(/C#N)S(C)(=O)=O)cc(C)c1OC(F)F	2	0
COC(=O)CN1CCC(C)C(n2ccnc2)C1 (stereo not given)	13	6
CC(C)Oc1ccc(Cc2cnc(=S)[nH]c2N)cc1	2	1
CCCNC(=O)CCNC(=O)OCc1ccccc1	12	9
COc1cccc(CN2C(=O)C3(NCCS3)c3cc(C)ccc32)c1 (stereo not given)	23	23
CCN(Cc1cc2ccc(OC)cc2[nH]c1=O)Cc1nccn1C	6	1
CCNC(=O)OC1CN(S(=O)(=O)c2cccs2)CCC(=O)N(C)c2ccccc21 (stereo not given)	4	13
Cc1cccc(-c2cnc(C)nc2C2CCCN(C(=O)c3cc4cc(C)ccc4[nH]3)C2)c1 (stereo not given)	13	4
Cc1ccc(N(CN2C(=O)c3ccccc3C2=O)C(=O)C(F)(F)F)cc1	13	14
COc1ccc(CNC(=O)N2CCc3nc(Nc4cc(C)cc(C)c4)ncc3C2)cc1	-2	-5
O=C(Nc1ncc(Br)s1)C12CC3CC(C1)CC(n1cnc([N+](=O)[O-])n1)(C3)C2	-4	-5
O=C(NCc1ccccc1OC(F)F)N1CCc2ccccc2C1	0	0
Cc1ccc(N2C(=O)C3C(c4ccc(Cl)cc4)OC4(C(=O)c5ccccc5C4=O)C3C2=O)cc1 (stereo not given)	-6	-12
COc1ccc(-c2ncc(C(=O)NC3CCC(CO)CC3)s2)cc1 (stereo not given)	11	-3
O=C(O)c1c(F)c(F)c(F)c(F)c1C(=O)O	12	8
Cc1ccccc1NC(=O)CSc1nc2c(-c3ccccc3)c[nH]c2c(=O)n1C1CC1	-1	-6
O=C1OC(/C=C/c2ccc(Cl)cc2)=NC/1=C/c1ccccc1[N+](=O)[O-]	-14	-18
CC(=O)N1C(=O)/C(=C2\SC(=S)N(NC(=O)c3ccc(O)cc3)C2=O)c2ccccc21	3	10
C=CCN(Cc1nccn1Cc1ccccc1F)C(=O)c1cccc(OC)c1	24	37
O=C(NCC1CCCC1)n1ccnc1	9	6
Cc1ccc(-n2ncc3c(C4CC4)nn(CC(=O)Nc4cc(C)on4)c(=O)c32)c(C)c1	6	3
COc1ccc(OC)c(NC(=O)CN(Cc2ccc(F)cc2)C2CCCCC2)c1	-2	-3
COc1ccc2nc(-c3ccc(NS(=O)(=O)c4ccc(F)c(C)c4)cc3)cn2n1	-6	-8
The listing continues:
SMILES	NPYLR7 agonist	NPYLR7 agonist max-min
Cc1cccn2c(=O)c3cc(C(=O)NC4CCCCC4C)n(C)c3nc12 (stereo not given)	-2	1
c1ncn(C2CCN(CC3CCCOC3)CC2)n1 (stereo not given)	1	-5
COc1cccc(C(=O)Nc2c3c(nn2-c2ccc(C)cc2C)CS(=O)(=O)C3)c1OC	-2	-4
CN1CCN(c2ncc(C(=O)NCCC(F)(F)F)s2)C1=O	1	1
CCc1nc(CN2CCC(Oc3ccccc3C(=O)N3CCCCC3)CC2)c(C)[nH]1	10	-2
Cc1ccc(-c2n[nH]c(Cc3ccccc3)n2)cc1N1CCNC1=O	-5	-12
O=C1OC(c2cccc(Br)c2)=NC1=Cc1ccc(N2CCOCC2)cc1	0	0
COc1ccccc1C1CC(c2ccccc2Cl)=NN1C(=O)CN1CCC2(CC1)OCCO2 (stereo not given)	-4	5
Cc1cccc(Cn2c(C)c(C)c(C)c2C(=O)NC(C)c2ccccc2)c1 (stereo not given)	-8	4
CN(Cc1cccc2cnccc12)Cc1cccn1-c1nccs1	3	28
CCOCCCNc1nc(-c2ccc(OC)cc2)ncc1C(=O)OCC	28	24
CC(C)(O)C#Cc1ccc(CN2CCCC(CNC(=O)c3cc4ccccc4[nH]3)C2)s1 (stereo not given)	15&6	6&3
CCCCc1ccc(NS(=O)(=O)c2ccc(C)c(C(=O)NNC(=O)c3cnccn3)c2)cc1	7	2
Cc1ccc(OCc2nnc(NC(=O)c3ccco3)s2)cc1	-6	-9
c1ccc(Cc2cn[nH]c2C2CCN(Cc3cccnc3)CC2)cc1	0	-4
Cc1cc(OC(C)C)ccc1NC(=O)c1ccc(N2NC(=O)CCC2=O)cc1	8	6
CN(C)CC1(O)CCCN(C(=O)CCc2nc3cccnc3n2C)C1 (stereo not given)	5	3
Cc1nc(C)c(Cc2ccccc2Cl)c(N2CCN(S(=O)(=O)c3ccc(Br)cc3)CC2)n1	1	7
Cc1ccc(C(=O)N2C(C(=O)NCc3ccco3)COC23CCN(C(=O)c2ccc4c(c2)OCO4)CC3)cc1 (stereo not given)	1	7
CC1CN(C(=O)CN2CCc3sccc3C2c2cccc(F)c2)CCN1C(=O)c1cccc(Br)c1 (stereo not given)	7	-6
CC1CCCC(NC(=O)CC23CC4CC(CC(Br)(C4)C2)C3)C1C (stereo not given)	9	8
CCOc1ccccc1C1c2[nH]c3ccccc3c2CCN1C(=O)c1cc(C)[nH]n1 (stereo not given)	4	0
O=C(O)c1ccc(=O)n(Cc2ccc(F)cc2)c1	-3	-4
CC(C)C(NS(=O)(=O)c1ccccc1C#N)c1ccc2c(c1)OCCCO2 (stereo not given)	1	7
CCCC1CCN(Cc2cn(C3CCN(S(=O)(=O)CC)CC3)nn2)C1 (stereo not given)	15	8
Next section.
SMILES	NPYLR7 agonist	NPYLR7 agonist max-min
O=S(=O)(Nc1ccc2c(c1)CCC2)c1cc(Br)ccc1Br	9	11
Cc1cc(N2CCCC(C)C2)c2nncn2n1 (stereo not given)	-2	24
CCc1nc2c(OCC3COc4ccccc4O3)cccn2c1N(C)C(=O)c1cccc(OC)c1 (stereo not given)	15	5
CN(Cc1ccc(O)cc1)C(=O)NCc1ccc(Br)cc1	11	8
CCOC(=O)C1CCCN(Cn2c(=O)c3ccccc3n3nc(C)cc23)C1 (stereo not given)	1	11
CCCCCOC(=O)C1=C(C)NC(=O)NC1c1ccc(Br)cc1 (stereo not given)	0	-5
Cc1cccnc1CC(C)Nc1cc(N2CCOCC2)nc(N)n1 (stereo not given)	17	13
C=C(C)CNC(=O)c1ccc(-c2cccc(C(F)(F)F)c2)s1	10	20
CCOc1ccc(NCC(=O)NC2CC2)cc1S(=O)(=O)N1CCCC1	1	-1
CN(C)C(=O)c1ccc(-c2nnc(Nc3ccccc3)c3ccccc23)cc1	-19	-23
Cn1cccc1C(=O)N1CCCC(CCc2ccccc2C(F)(F)F)C1 (stereo not given)	6	2
COc1ncccc1C(=O)N1CCCC(C(=O)c2cccc(OC(C)C)c2)C1 (stereo not given)	-2	-3
CSCCNc1nc2nonc2nc1NCc1cccs1	5	3
CN=c1scc(-c2cccc(Cl)c2)n1N=C1CCc2ccccc21	6	4
CCc1c(C)nn(-c2ccc(C(=O)N3CCC(n4c(=O)[nH]c5ccccc54)CC3)cc2)c1C	-11	-17
CCNC(=O)[C@@]1(OCc2cccc(Cl)c2)CC(OCc2cccc(F)c2F)[C@H](O)[C@H](O)C1 (stereo not given in full)	0	10
COc1ccc(CCN(C)c2cc(Cl)nc(SCc3ccc(C(=O)N4CCN(C(c5ccccc5)c5ccccc5)CC4)cc3)n2)cc1OC	-4	-1
CCCCN1C(=O)C2(CCN(C(=O)CC(C)CC)CC2)Nc2ccccc21 (stereo not given)	-1	-6
O=c1ccc(-c2ccc(Cl)cc2)nn1CCNS(=O)(=O)c1ccc(F)cc1	0	-2
COc1ccccc1-n1cc(CN2CCCC(CO)(Cc3cccc(Cl)c3)C2)cn1 (stereo not given)	2	-3
O=S(=O)(c1ccc(CN2CCOC(C(F)(F)F)C2)cc1)N1CCOCC1 (stereo not given)	10	1
CCc1nc(N)sc1C(=O)N(CC)Cc1ccccc1F	9	5
Cc1nn(-c2ccccc2)c2[nH]cc(C(=O)NCc3cccnc3)c(=O)c12	0	19
O=S(=O)(NCc1ccc2c(c1)OCO2)c1cccs1	0&3	0&0
CC12CCC(CC1=NN=Cc1ccccc1OC(F)F)C2(C)C (stereo not given)	-3	-4
The listing continues.
SMILES	NPYLR7 agonist	NPYLR7 agonist max-min
Cc1nn(C)cc1-c1ccnc(N(C)Cc2ccsc2)n1	7	0
CN1C(=O)NC(c2ccccc2Cl)C2=C1CN(CCC(=O)NCCOc1ccccc1)C2=O (stereo not given)	-2	8
CN(Cc1ccc2nonc2c1)Cc1nc(Cc2ccccc2Cl)no1	16	4
CC(C)(C)C(=O)Nc1c2c(nn1CC(=O)NCc1ccccc1)CSC2	-6	-3
COc1ccc(C(=O)NCCc2csc3nc(-c4ccccc4)nn23)cc1	1	-1
Cc1cccc(C)c1NC(=O)CSc1nc2c(-c3ccccc3)c[nH]c2c(=O)n1C	-1	-3
Cc1cc(OCC2CN(C(=O)c3ccccc3C#N)CCO2)ccc1Cl (stereo not given)	-6	-13
N[C@@H](Cc1ccc(O)c(I)c1)C(=O)O	4	-46
CCc1nc(C2CN(C(=O)CC3CCc4ccccc43)CCO2)n[nH]1 (stereo not given)	-23	-22
O=C(NCc1ccco1)c1noc2c1CCCC2	1	2
O=Nc1ccc2oc(=O)ccc2c1	2	-11
CCNC(=O)C(C)N1CCN(c2cccc(C(F)(F)F)c2)CC1 (stereo not given)	-25	-28
Nc1cc(-c2cccc(C(F)(F)F)c2)nn1-c1ccc(C(=O)Nc2ccc3ncsc3c2)cc1	-4	-15
CCS(=O)(=O)N1CCN(c2nc3ccccc3[nH]2)CC1	-3	-5
O=C1CCc2cc(-c3csc(=Nc4ccccc4F)n3NC(=O)C3CC3c3ccccc3)ccc2N1 (stereo not given)	-3	-8
Cc1nn(C)c(Cl)c1-c1nc(-c2ccccc2)c(C)[nH]1	2	-3
CC(C)CN(CC(=O)Nc1cc(C(C)(C)C)nn1-c1ccc(Cl)c(Cl)c1)C(=O)Nc1ccc(C#N)cc1	0	-1
CCc1ccccc1NC(=O)N1CCN(c2cc(Oc3ccc(F)cc3C)ncn2)CC1C (stereo not given)	-5	1
COc1ccc(S(=O)(=O)NCC(F)(F)F)cc1Br	4	12
CC(C)(CN1CCOCC1)CN1CCN(Cc2cccc(F)c2)CC1	-2	-6
C=Cc1ccc(CC2(C)C(=O)Nc3ccc(Cl)cc32)cc1 (stereo not given)	2	1
Cc1cc(O)c(CN2CCN(S(C)(=O)=O)CC2)cc1C(C)C	0	0
CC(C)c1nncn1CCNC(=O)Cn1c(=O)[nH]c2ccccc21	-1	-2
CCCN(C(=O)CNCC1CN(C)CCO1)C1=CCCCC1 (stereo not given)	4	2
CCOc1ccccc1NC(=O)N1CCSC1c1cc(OC)ccc1OC (stereo not given)	-2	5

15 compounds out of the list, ordered by count of non-hydrogen atoms, low to high:
SMILES	NPYLR7 agonist	NPYLR7 agonist max-min
O=Nc1ccc2oc(=O)ccc2c1	2	-11
N[C@@H](Cc1ccc(O)c(I)c1)C(=O)O	4	-46
COc1ccc(S(=O)(=O)NCC(F)(F)F)cc1Br	4	12
Cc1nn(C)c(Cl)c1-c1nc(-c2ccccc2)c(C)[nH]1	2	-3
C=Cc1ccc(CC2(C)C(=O)Nc3ccc(Cl)cc32)cc1 (stereo not given)	2	1
Cc1cc(O)c(CN2CCN(S(C)(=O)=O)CC2)cc1C(C)C	0	0
CCNC(=O)C(C)N1CCN(c2cccc(C(F)(F)F)c2)CC1 (stereo not given)	-25	-28
CC(C)c1nncn1CCNC(=O)Cn1c(=O)[nH]c2ccccc21	-1	-2
CC(C)(CN1CCOCC1)CN1CCN(Cc2cccc(F)c2)CC1	-2	-6
CC(C)(C)C(=O)Nc1c2c(nn1CC(=O)NCc1ccccc1)CSC2	-6	-3
Cc1cccc(C)c1NC(=O)CSc1nc2c(-c3ccccc3)c[nH]c2c(=O)n1C	-1	-3
CN1C(=O)NC(c2ccccc2Cl)C2=C1CN(CCC(=O)NCCOc1ccccc1)C2=O (stereo not given)	-2	8
Nc1cc(-c2cccc(C(F)(F)F)c2)nn1-c1ccc(C(=O)Nc2ccc3ncsc3c2)cc1	-4	-15
O=C1CCc2cc(-c3csc(=Nc4ccccc4F)n3NC(=O)C3CC3c3ccccc3)ccc2N1 (stereo not given)	-3	-8
CC(C)CN(CC(=O)Nc1cc(C(C)(C)C)nn1-c1ccc(Cl)c(Cl)c1)C(=O)Nc1ccc(C#N)cc1	0	-1

(further entries)
SMILES	NPYLR7 agonist	NPYLR7 agonist max-min
COc1ccc(C(=O)ON=C2C=C(C)C(=O)C(C)=C2)cc1	-4	-6
COC(=O)c1ccc2c(=O)n(CCc3ccccc3)c(N3CCSC3)nc2c1	-3	-4
CC(C)(C)P(=Nc1ccc(S(N)(=O)=O)cc1)(N1CCOCC1)N1CCOCC1	-11	-17
CC(C)n1c(=O)c(C(=O)NC2CCN(Cc3ccccc3)C2)cc2cccnc21 (stereo not given)	-7	-9
Cc1ccc(NC(=O)N2CCSC2c2cccn2C)cc1 (stereo not given)	-5	-2
CSc1nnc(C)c(=O)n1COC(=O)c1cc(Cl)ccc1Cl	2	1
CCOC(=O)c1csc(CSc2nnc(Cc3ccccc3)n2-c2ccccc2OC)n1	3	3
CCCS(=O)(=O)N1CC=C(c2c[nH]c3cc(F)ccc23)CC1	-4	-3
Fc1cc(Oc2ccc(C(F)(F)F)cn2)cc(F)c1CN1CCCC1	8	9
N#CCCN(C(=O)Cn1nc(-n2cncn2)ccc1=O)c1ccccc1F	8	8
O=C(O)c1c[nH]c2ccc(S(=O)(=O)NC3CCCCNC3=O)cc2c1=O (stereo not given)	4	1
COCCN1C=C(C(=O)OC)C(c2ccc(Cl)s2)C(C(=O)OC)=C1	-4	-4
CS(=O)(=O)c1cccc(C(=O)Nc2ccc(NC(=O)CC3CCCC3)cc2Cl)c1	10	6
O=S(=O)(Nc1ccc2c(c1)nc1n2CCCCC1)c1ccc(Cl)s1	2	0
O=C(Cc1ccc(F)cc1)N1CCN(C(=O)c2cc(O)cs2)CC1	6	4
O=C(NCCc1ccc(Cl)cc1Cl)c1csc(CSc2nnc(-c3ccncc3)n2-c2ccccc2Cl)n1	0	10
O=C(N1CCOCC1)N1CCN([C@@H]2C[C@@H]3CO[C@H](c4ccccc4)C[C@@H]3C2)CC1	24	31
CCCC(=O)N1CCCC1(C)C(=O)Nc1ccc(C)c(C)c1 (stereo not given)	5	2

Only part of the results is shown; count on the stated rates, not on these rows.
